# HPGD block: qHTS Assay for Inhibitors of HPGD (15-Hydroxyprostaglandin Dehydrogenase); Potency, µM, for the others: at the top dose activity change, negative = inhibition, usual class: inhibitors; purified HPGD, NADH fluorescence kinetic, PGE2 substrate; hit rate 4.3% among 150,000; 15-hydroxyprostaglandin dehydrogenase [NAD(+)] (Homo sapiens), P15428; AID 894, 2007; active = well fitted inhibition curve with a large enough effect (not every such curve was filed as active); inconclusive = small, poorly fitted or top-dose-only effect, or another doubt; inactive = no such curve, though single readings can be large or run the other way;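 note: top concentration of the series not given in the record; plate controls included wells without enzyme; inactives centre near -10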
# Target sequence (P15428 whole entry, looked up): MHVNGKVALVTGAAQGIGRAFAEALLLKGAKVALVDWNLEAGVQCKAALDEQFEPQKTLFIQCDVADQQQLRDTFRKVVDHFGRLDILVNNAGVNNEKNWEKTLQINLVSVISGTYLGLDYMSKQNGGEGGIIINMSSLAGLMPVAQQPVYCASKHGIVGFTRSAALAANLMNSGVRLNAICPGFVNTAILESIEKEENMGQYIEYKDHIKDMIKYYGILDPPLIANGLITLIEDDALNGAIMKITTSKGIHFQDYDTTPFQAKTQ
#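 20 nM HPGD preincubated 15 min at room temperature with compound in 50 mM Tris-HCl pH 8, 0.01% Tween 20. Started with 1 mM NAD+ and 30 uM prostaglandin E2; NADH fluorescence (360/450 nm) read 5 times over 30-s intervals, last minus first.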
# An asterisk follows results filed as active; ? = inconclusive; & = joins results of further samples. % is set by controls: 0 for no effect and ±100 for the full control effect; potency is the fitted concentration of half-maximal effect.
SMILES,HPGD block
Cc1ccc(OCC(=O)Nc2ccc(-c3nc4ncccc4o3)cc2)c(C)c1,?
Cc1nc2n(n1)C(c1ccccc1)C1=C(CC(c3ccco3)CC1=O)N2 (configuration not stated),?
CC(Sc1nnc(CNc2cccc3ccccc23)n1-c1ccccc1)C(=O)N/N=C/c1ccco1 (configuration not stated),-6%
Cc1ccc(C)c(Oc2nnnn2-c2ccccc2)c1,-12%
CCCS(=O)(=O)n1nc(-c2ccc(Br)cc2)cc1N,-10%
N/C(=N\OS(=O)(=O)c1ccc(Cl)cc1)c1cccnc1,-7%
Cc1ccc(SCCNS(=O)(=O)c2ccc(F)cc2)cc1,-7%
CNc1ncnc2ccc(-c3ccccc3OC)cc12,?
CC1(c2cnc(Nc3ccccc3)s2)CCC(=O)O1 (configuration not stated),-15%
CN(C)c1nc(Oc2ccc(=O)n(-c3ccccc3)n2)nc(N2CCOCC2)n1,-2%
NS(=O)(=O)c1ccc(NCc2nc3ccccc3[nH]2)cc1,-4%
COc1ccc(C)cc1NC(=O)c1cnc2sccn2c1=O,?
COc1ccc(/C=C2\SC(N3CCc4ccccc4C3)=NC2=O)cc1OC,?
COc1ccc(Nc2nc(CN3CCOCC3)nc3sc4c(c23)CCC(C)C4)cc1OC (configuration not stated),-4%
O=C(c1ccccc1)C(CCC(CN1CCOCC1)C(=O)c1ccccc1)CN1CCOCC1 (configuration not stated),2%
c1ccc(C[n+]2cccc(-c3cc4ccccc4[nH]3)c2)cc1,3%
CC/C(=C\C(=O)c1ccncc1)Nc1ccc(O)cc1,?
Cc1ccc(O)c(N=Cc2ccc(C)s2)c1,-4%
c1ccc(-c2cnn3c(-c4ccccc4)c(-c4ccccc4)nc3n2)cc1,20µM*
O=C(NCCN1CCOCC1)c1ccc(Cl)c(S(=O)(=O)N2CCCCCC2)c1,-6%
COC(=O)Nc1ccc(S(=O)(=O)N2CCCC(C(=O)Nc3cccnc3)C2)cc1 (configuration not stated),-17%
Nc1cc(C(F)(F)F)cc2c1SCC(=O)N2,-7%
CCn1c(CSc2nnc3ccccn23)nc2cc(C(=O)O)ccc21,-8%
Cc1c(Br)c([N+](=O)[O-])nn1C(C)C(=O)NCc1cccs1 (configuration not stated),-5%
CCc1nnc(NC(=O)CSc2nnc(-c3cccnc3)n2CCc2ccccc2)s1,-13%
CCOC12CC(C)(C)CC(C)(CC3=C1C(=O)CC(C)(C)C3)C2 (configuration not stated),8%
O=C(O)c1cccc(-c2nnn(Cc3ccccc3)n2)c1,-16%
Cn1c(=O)[nH]c(=O)c2c1nc(NC1CCCCC1)n2Cc1ccccc1,-3%
COc1ccc(CCSc2nnc(C3CCCCC3)n2N)cc1,20µM*
COc1cccc(C(=O)NNC(=S)NC2CCCCC2)c1,-23%
Cc1ccc(NC(=O)C2CCN(C(=O)NC3CCCCC3)CC2)c(C)c1,-7%
CCn1c(CNc2ccc(F)cc2)nnc1SCC(=O)N1CCCc2ccccc21,-18%
Cc1cc(C)cc(-n2nnc(C(=O)NCc3ccccc3)c2N)c1,?
CCn1nc2cc(C(=O)NCc3cc(C(F)(F)F)cc(C(F)(F)F)c3)ccc2c1OC,?
COc1cccc(-n2nnc3c(=O)n(CC(=O)N4CCC(C)CC4)cnc32)c1,?
CCC1=NN(C(=O)C(=O)Nc2ccccc2OC)C(O)(C(F)(F)F)C1 (configuration not stated),-19%
O=C(O)C1OC(Oc2cc3oc(-c4ccccc4)cc(=O)c3c(O)c2O)C(O)C(O)C1O (configuration not stated),4.5µM*
Cn1nc(-c2ccc(Cl)cc2)c2cc(C(=O)N3CCOCC3)sc21,-12%
O=C1CSC(=S)N1CC1CCCO1 (configuration not stated),-2%
COc1ccc(N=c2scc(-c3ccc(OC)cc3)n2CCO)cc1,-4%
CCCCN(C)CCn1c(=S)[nH]c2ccc(N3CCOCC3)cc2c1=O,-19%
CCCC(=O)N1c2ccccc2C(N(C(C)=O)c2ccccc2)CC1C (configuration not stated),-2%
O=C(Nc1ccc(S(=O)(=O)NCCc2ccccc2)cc1)c1ccco1,-24%
Cc1ccc(N(C)C(=O)N2CCN(S(=O)(=O)c3ccc4ccccc4c3)CC2)cc1,-4%
Cc1ccc(S(=O)(=O)N2CCCCC2C(=O)N2CCN(Cc3ccccc3)CC2)cc1 (configuration not stated),-3%
COc1ccc(NC(=S)N(CCc2c(C)[nH]c3ccc(C)cc23)Cc2ccco2)cc1,-18%
O=C(CN(c1ccc(Cl)c(C(F)(F)F)c1)S(=O)(=O)c1ccccc1)N1CCOCC1,-8%
Cc1ccc(Cl)cc1N1CCN(C(=O)Cc2cn(C)c3ccccc23)CC1,-13%
COCCNCCCCOc1ccc(Br)cc1C,-15%
N#CC1=C(N)Oc2cc(O)ccc2C1c1cccs1 (configuration not stated),-11%
C=Cc1cccc(C)c1,1%
O=C(Nc1ccc(Cl)cc1)/C(=C/c1cccc(O)c1)c1nc2ccccc2s1,-5%
COc1cccc(Cn2c(=O)c(-c3cc(F)cc(F)c3)nc3cnc(OC)nc32)c1,-8%
COc1ccc(-c2c(C)oc3c(CN4CCN(CCO)CC4)c(O)ccc3c2=O)cc1OC,?
O=C(COC(=O)c1cccs1)Nc1ccccc1,-39%
CC(C)CCNC(=O)CSc1nc2ccsc2c(=O)n1NC(=O)c1ccccc1,-11%
CCCCCc1c(C)nc(Nc2nc(C)c3cc(OC)ccc3n2)[nH]c1=O,-6%
Cc1ccc(P(=O)(O)c2ccc(C)cc2)cc1,3%
Cc1c(C(=O)NCc2ccc(F)cc2)c(-c2ccccc2)nn1-c1ccccc1,-12%
CC(C)[C@@H]1NC(=O)c2cc([N+](=O)[O-])cc(I)c2NCCC[C@@H](C(=O)NC(CC(=O)O)C(N)=O)NC(=O)[C@H](CO)NC1=O (some centres not stated),-7%

# Next section:
SMILES,HPGD block
CCCn1c(SCC(=O)Nc2sc(C)c(C)c2C(=O)OCC)nc2c1c(=O)n(C)c(=O)n2C,-9%
N[C@@H](Cn1cc(I)c(=O)n(Cc2ccc(C(=O)O)cc2)c1=O)C(=O)O,0%
Cc1cc(C)c(C#N)c(SCC(=O)c2ccc(Cl)cc2Cl)n1,-18%
Fc1ccc(Cn2nnnc2C(c2ccc(Cl)cc2)N2CCSCC2)cc1 (configuration not stated),-6%
O=C(NCCc1csc(-c2cccnc2)n1)c1ccco1,-25%
COc1ccc(OCCSCc2nnc(NC(=O)Nc3ccc(Cl)cc3)s2)cc1,-5%
CCSc1oc(-c2ccccc2)nc1S(=O)(=O)c1ccccc1,-29%
COc1cc(NC(=O)CSc2nnc(Cn3nnc4ccccc43)n2C)cc(OC)c1,2%
CN(C)C(=O)/C(C#N)=C\c1cc(Br)c(Sc2ccc(Cl)cc2)o1,-5%
CCn1cc(C2=NCC(C)O2)c2ccccc21 (configuration not stated),-23%
Cc1c(/C(O)=C2\C(=O)C(=O)N(CCN(C)C)C2c2cccs2)cnn1-c1ccccc1 (configuration not stated),-6%
Cc1ccc(C(N)=Nc2ccccc2)cc1,-7%
CC(C)(CS)C(=O)N1CCC[C@H]1C(=O)O,-23%
Cc1ccc(O)c(N=Cc2sc3ccccc3c2Cl)c1,-14%
COc1cnc(NS(=O)(=O)c2ccc(N)cc2)nc1,-11%&-3%&1%
O=C(CN1C(=O)c2ccccc2C1=O)NCC(=O)OCC(=O)c1ccc(Cl)cc1,-5%
CCn1c(C2CC(=O)N(c3cc(C)cc(C)c3)C2)nc2ccccc21 (configuration not stated),-12%
CCOC(=O)c1nc2nc(C)cc(=O)n2[nH]1,-11%
CCOc1cc2[nH]c(=O)n(Cc3cccc(OC)c3)c(=O)c2cc1OCC,-8%
CCCOC(=O)C1=C(C)NC2=C(C(=O)C(C(=O)OC)C(C)C2)C1c1ccc(N(CC)CC)cc1 (configuration not stated),-26%
CCc1ccc(S(=O)(=O)N2CC(=O)Nc3ccccc32)cc1,-3%
Cc1cc(C)c(C#N)c(SCS(=O)Cc2ccccc2)n1 (configuration not stated),?
O=C(NC1CCCCCC1)C1CCN(S(=O)(=O)c2ccc(F)cc2)CC1,-5%
Cc1ccc(CCN2CC(C(=O)N3CCN(c4ccc(F)cc4)CC3)CC2=O)cc1 (configuration not stated),-11%
COc1ccc(OC)c(C2CC(=O)c3c([nH]c(C(=O)OC(C)C)c3C)C2)c1 (configuration not stated),-15%
COC1=C(OC)C(=O)C(C/C=C(\C)CC/C=C(\C)CC/C=C(\C)CC/C=C(\C)CC/C=C(\C)CC/C=C(\C)CC/C=C(\C)CC/C=C(\C)CC/C=C(\C)CCC=C(C)C)=C(C)C1=O,0%
COc1ccc([N+](=O)[O-])cc1NC(=O)c1ccc(CN(c2ccccc2)S(C)(=O)=O)cc1,-22%
CSc1ccc(S(=O)(=O)NCc2ccc(Cl)cc2Cl)cc1,-7%
CCN1C=C(Cc2ccccc2C)C2=C(C1)C(c1ccccc1C)C(C#N)=C(N)O2 (configuration not stated),-27%
COc1ccc(CC(=O)Nc2nnc(-c3cccc([N+](=O)[O-])c3)s2)cc1,-4%

# 5 compounds from above, ordered by their value in HPGD block, high to low:
Structure,HPGD block
Cc1ccc(P(=O)(O)c2ccc(C)cc2)cc1,3%
Cc1c(/C(O)=C2\C(=O)C(=O)N(CCN(C)C)C2c2cccs2)cnn1-c1ccccc1 (configuration not stated),-6%
Cc1ccc(CCN2CC(C(=O)N3CCN(c4ccc(F)cc4)CC3)CC2=O)cc1 (configuration not stated),-11%
Cc1ccc(Cl)cc1N1CCN(C(=O)Cc2cn(C)c3ccccc23)CC1,-13%
COc1cccc(C(=O)NNC(=S)NC2CCCCC2)c1,-23%

# Other results follow.
SMILES,HPGD block
Cc1ccc(C(=O)C(OC(=O)CN2C(=O)c3ccccc3C2=O)c2ccccc2)cc1C (configuration not stated),-14%
CCN1CCN(C(=O)CN(c2ccccc2C)S(C)(=O)=O)CC1,-9%
Cc1ccc(N(C=NC#N)CC(=O)N2CCN(c3ccccc3)CC2)cc1,-11%
O=C(CSc1nc2cccnc2n1Cc1ccccc1)NCc1ccco1,32µM*
COc1cccc(C(=O)Oc2cc3c4c(c2)C(C)=CC(C)(C)N4C(=O)C3=O)c1,28µM*
COc1cc(OC)c(-c2nn3c(C4CCCCC4)nnc3s2)cc1OC,?
O=C(CCSc1nnc(-c2ccco2)o1)Nc1ccc(Cl)cc1,-10%
Cn1c(CNC(=O)c2ccccc2F)nnc1SCc1ccc(F)cc1,-9%
COCCn1c(SCCCC(=O)c2ccc(Br)cc2)nnc1-c1ccncc1,-14%
O=C(O)/C(=C\c1cccc(F)c1)c1ccc(S(=O)(=O)N2CCCCC2)s1,-4%
Cc1cccc(CN(CC(=O)N/N=C/c2cccs2)S(=O)(=O)c2ccc(Cl)cc2)c1,-10%
Cc1ccc(C)c(S(=O)(=O)N2CCN(C(=O)c3cnccn3)CC2)c1,-4%
CC1=CCC2C(=O)N(c3ccc(Br)cc3C)C(=O)C2C1 (configuration not stated),2%
O=C(CCC1CCCCC1)NCc1ccc(F)cc1,-18%
Cc1ccc2nc(NC(=S)NC(=O)c3ccco3)sc2c1,-17%
O=C(CN1C(=O)C2C3C=CC(C3)C2C1=O)NCCN1CCCc2ccccc21 (configuration not stated),-10%
CC(C)SC1=NC(C)(C)C=C(/C=C/c2ccc(Cl)cc2Cl)N1,-20%
CSc1cc(C)n(-c2ccccc2C)c(=S)c1C(C)=O,-7%
CCCCCCCCC/C=C/CC1CC(=O)OC1=O (configuration not stated),-16%
CCc1cc2cc(C)cc(C)c2nc1SCC(=O)NNC(=O)c1ccco1,-11%
CS(=O)(=O)Nc1ccc(Cc2ccc(NS(C)(=O)=O)cc2)cc1,?
O=C(CCn1c(=O)oc2ccccc21)N1CCOCC1,-9%
O=C(COc1ncnc2ccccc12)N1CCN(S(=O)(=O)c2ccc(Cl)cc2)CC1,-13%
O=C(Nc1ccc2c(c1)OCCO2)c1cnccn1,-7%
CCCC(=O)Nc1ccc(NC(=O)c2ccccc2OC)cn1,-13%
CC(=O)c1sc(N/N=C\c2cccc(Br)c2)nc1C,28µM*
OCCN=c1cc(-c2ccccc2)oc2ccc(Cl)cc12,-14%
O=C(NC(NC(=S)Nc1cc(Cl)ccc1Cl)C(Cl)(Cl)Cl)c1ccco1 (configuration not stated),-22%
CCOc1cc(/C=N/NC(=O)c2cccc([N+](=O)[O-])c2)ccc1OS(=O)(=O)c1ccccc1,-8%
Cc1nn(CC(=O)Nc2ccccn2)c(C)c1Br,-1%

# Part of the list above in order of formula weight, rising:
SMILES,HPGD block
CSc1cc(C)n(-c2ccccc2C)c(=S)c1C(C)=O,-7%
CCCC(=O)Nc1ccc(NC(=O)c2ccccc2OC)cn1,-13%
CC(=O)c1sc(N/N=C\c2cccc(Br)c2)nc1C,28µM*
CC(C)SC1=NC(C)(C)C=C(/C=C/c2ccc(Cl)cc2Cl)N1,-20%
O=C(COc1ncnc2ccccc12)N1CCN(S(=O)(=O)c2ccc(Cl)cc2)CC1,-13%
O=C(NC(NC(=S)Nc1cc(Cl)ccc1Cl)C(Cl)(Cl)Cl)c1ccco1 (configuration not stated),-22%

# (cont.)
SMILES,HPGD block
Cc1nc2c3cnn(-c4ccccc4)c3ncn2n1,-19%
CC1CCN(S(=O)(=O)c2ccc3c(c2)c(=O)c(C(=O)N2CCCCC2)cn3C)CC1,-10%
Cc1ccc(NC(=S)N2CCn3cccc3C2c2cccnc2)cc1 (configuration not stated),-10%
O=C(CCC(=O)OCC(=O)c1ccccc1)Nc1cccc2cccnc12,-12%
COC(=O)CCn1nnc(-c2ccc(C)cc2)n1,-10%
Cc1ccccc1NN1C(=O)C=CC1=O,-2%
O=C(CCCOc1ccccc1)N1CCCCC1,4µM*
CC1(C)Oc2ccc3ccc(=O)oc3c2/C(=C/Nc2ccccc2)C1=O,-14%
CC1=Nn2c(nnc2-c2cc(C)[nH]n2)SC1,-8%
CN(C)S(=O)(=O)c1ccc(C(=O)Nc2nc(-c3cccs3)cs2)cc1,?

# An excerpt, so the mix of outcomes need not match the whole.
